Compound activity as filed in PubChem.
Bm FixLJ act: increases Burkholderia fixLJ two-component signaling; B. multivorans fixK-promoter GFP reporter, 18 h; active compounds read high; z-score (concentration not given with the values); 0.3% of 29,000 active; AID 1918990;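 active = replicate mean overnight rise in green fluorescent reporter signal, 3 or more SD over negative controls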;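 also: score is relative to vehicle wells of the plate; 300 nL library stock went into each well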
An asterisk follows results filed as active; & = joins results of further samples. The list is partial, so the mix of outcomes need not match the whole.

SMILES | Bm FixLJ act
CCCCOC(=O)c1ccc(NC(=O)Cn2nnc3sc4c(c3c2=O)CCCC4)cc1 | -1.4
CCCCOCC(=O)N1CCCC(c2ccn(CC(=O)O)n2)C1 (stereo not drawn) | -2.17
Cc1nc2c(-c3ccc(F)cc3)c(C)nn2c(C)c1CCC(=O)NCc1ccc(F)cc1 | -0.74
CN(C)S(=O)(=O)NC1CCCC(CNC(=O)CCCCc2cccnc2)C1 (stereo not drawn) | 0.97
Cc1cccc(OCc2nnc(SCC(=O)Nc3ccc(C)cc3C)o2)c1 | -0.82
CCc1ccc(NC(=O)C(C)n2nnc3sc(-c4ccccc4)cc3c2=O)cc1 (stereo not drawn) | -3.27
CCCn1cc(C(=O)NCC2(c3cccc(F)c3)CCOCC2)c(C)n1 | -0.34
Cc1nnc(CCNC(=O)c2ccc(-c3noc(C4CC4)n3)cc2)s1 | -1.09
Cc1cccc(-n2c3nc(=O)n(C)c(=O)c-3cc3ccc(Cl)cc32)c1C | -0.82
Cc1cc(C)c2c(n1)nn1c(C)c(CCC(=O)NCc3ccccc3Cl)c(C)nc21 | -1.88
COc1cc(OC)cc(-c2ccc(C(=O)NCc3cc(C4CC4)n[nH]3)cc2)c1 | -1.25
CCc1ccccc1NC(=O)C(NS(=O)(=O)c1ccc2c(c1)CCC(=O)N2)c1ccccc1 (stereo not drawn) | 0.53
CCc1nc(C)sc1CNC(=O)c1ccc(C#CC(C)(C)O)o1 | -1.19
O=C(NC1CCCCC1)c1ccc(CSc2nc3ccncc3n2Cc2ccc(F)cc2)cc1 | -5.04
CCCNC(=O)CN1C(=O)COc2ccc(S(=O)(=O)N3CCCCCC3)cc21 | -1.33
COCc1cc(C)nc2sc3c(c12)NC(c1ccc(O)c(OC)c1)N(c1ccccc1)C3=O (stereo not drawn) | -2.17
Cc1cnccc1C(=O)NC(c1cnc2ccccc2c1)C1CC(O)C1 (stereo not drawn) | 0.31
CC(CCc1ccccc1)NC(=O)Cn1ncc2c3ccccc3n(Cc3ccccc3F)c2c1=O (stereo not drawn) | -1.75
CN1C(=O)CC(C(=O)O)C12CCN(Cc1ccccc1C(F)(F)F)CC2 (stereo not drawn) | -0.23
CCn1c(=O)c2sccc2n2c(CCC(=O)Nc3ccc(OC)c(Cl)c3)nnc12 | -0.47

The closing 7 compounds of the part before are carried over, then new ones follow.
SMILES | Bm FixLJ act
O=C(NC1CCCCC1)c1ccc(CSc2nc3ccncc3n2Cc2ccc(F)cc2)cc1 | -5.04
CCCNC(=O)CN1C(=O)COc2ccc(S(=O)(=O)N3CCCCCC3)cc21 | -1.33
COCc1cc(C)nc2sc3c(c12)NC(c1ccc(O)c(OC)c1)N(c1ccccc1)C3=O (stereo not drawn) | -2.17
Cc1cnccc1C(=O)NC(c1cnc2ccccc2c1)C1CC(O)C1 (stereo not drawn) | 0.31
CC(CCc1ccccc1)NC(=O)Cn1ncc2c3ccccc3n(Cc3ccccc3F)c2c1=O (stereo not drawn) | -1.75
CN1C(=O)CC(C(=O)O)C12CCN(Cc1ccccc1C(F)(F)F)CC2 (stereo not drawn) | -0.23
CCn1c(=O)c2sccc2n2c(CCC(=O)Nc3ccc(OC)c(Cl)c3)nnc12 | -0.47
Cc1ccccc1/C=C(\C#N)c1nc(-c2ccc(Cl)cc2)cs1 | -0.06
Cc1ccc(C)c(NC(=O)Cc2coc3cc(C)cc(C)c23)c1 | -1.94
CC(=O)N1CCc2cc(S(=O)(=O)CCC(=O)N3CCN(c4cccc(C)c4C)CC3)ccc21 | -0.33
CNC(=O)C(C)N(C)C(=O)c1coc(COc2cccc(F)c2F)n1 (stereo not drawn) | 0.05
O=C(NCC1CCCO1)c1ccc(-c2cnc3[nH]ccc3c2)cc1 (stereo not drawn) | -0.13
COCCN(Cc1nccs1)C(=O)c1ccccc1C(=O)O | -0.4
CCCn1ncc(-c2cc(-c3cc(O)ccc3OC)c(C#N)c(N)n2)c1C | -0.83
CC(C)OCCCNC(=O)CN1C(=O)COc2ccc(S(=O)(=O)N3CCOCC3)cc21 | -1.09
NCCCC(N)CC(=O)NCC1NC(=O)C(CO)NC(=O)C(N)CNC(=O)C(C2CCN=C(N)N2)NC(=O)/C(=C\NC(N)=O)NC1=O (stereo not drawn) | 0.19
Cc1c(NC(=O)c2sc3c([N+](=O)[O-])cccc3c2Cl)cccc1-c1nc2ccccc2o1 | -1.51
CN1CCC(N(C)CCC(=O)NCCCn2cc(Cl)cn2)C1 (stereo not drawn) | -0.24
CC(Cn1cncn1)C(=O)N1CCc2nc(-c3ccc(F)cc3F)[nH]c2C1 (stereo not drawn) | -1.01
Cc1cc(C)cc(Nc2cc(C(=O)NC3CCC(C)CC3)c3ccccc3n2)c1 (stereo not drawn) | -0.04
Cc1cc(C)cc(Oc2nc3c(C)cccn3c(=O)c2/C=C(\C#N)c2nc3ccccc3[nH]2)c1 | -1.3
c1coc(-c2n[nH]c(C3(N4CCOCC4)CCCCC3)n2)c1 | 0.26
CC(C)CN(CCNC(=O)c1cn(C)c2ccc(S(=O)(=O)N3CCCCCC3)cc2c1=O)CC(C)C | -1.52
CCn1c(=N)c(C(=O)NC2CCCCC2)cc2c(=O)n3cc(C)ccc3nc21 | -2.51
NC(=O)C1(NC(=O)CCc2nc(-c3ccco3)no2)CCCC1 | 0.18
COc1ccc(-c2cc3nc(-c4ccccc4)cc(C(F)(F)F)n3n2)cc1 | 0.13
CN(C)CCCN1c2ccccc2Sc2ccc(Cl)cc21 | -1.4&0.41
CCOc1ccccc1N1CC(c2nc3ccccc3n2CCCCOc2ccccc2)CC1=O (stereo not drawn) | -1.14
O=C(Nc1noc2ccccc12)c1ccc(F)cc1 | -1.43
CCN1CCN(C(=O)c2ccc3c(c2)N(Cc2ccccc2F)C(=O)c2ccccc2S3=O)CC1 (stereo not drawn) | -1.42
CCn1c(=O)cc(SCC(=O)NCc2ccc(OC)cc2OC)c2ccccc21 | -1.24
O=c1c2c3c(sc2n(Cc2ccc(F)cc2Cl)c(=O)n1-c1ccc(Cl)cc1)CCC3 | 1.5
COCC(=O)Nc1ccc(NC(=O)CCc2c(C)noc2C)cc1Cl | -1.85
Cn1ncc(Cl)c1C(=O)NC(c1cnc2ccccc2c1)C1CC(O)C1 (stereo not drawn) | -1.45
Cc1nc(=O)[nH]c(C)c1CCC(=O)NCc1ccc2c(c1)OCCCO2 | -2.26
CCOc1ccc(-c2nn(-c3ccc(F)cc3)c3c2cnc2ccc(F)cc23)cc1 | -1.63
Brc1cccc(-c2nnn3c2nc(NCc2ccc4c(c2)OCO4)c2ccccc23)c1 | -1.4
Cc1ccn2c(Nc3c(C)cccc3C)c(-c3ccsc3)nc2c1 | -2.05
Cc1ccc(C2N3CC4(C)CN2CC(c2ccccc2)(C3)C4=O)cc1 (stereo not drawn) | -1.67
CCC(CNc1cccc(C(=O)N(C)C)n1)N1CCOCC1 (stereo not drawn) | -0.23
Cc1nn(CCC(=O)NC2CCN(Cc3cscn3)CC2O)c(C)c1C (stereo not drawn) | 0.39
C#Cc1cccc(Nc2ncnc3cc(OCCOC)c(OCCOC)cc23)c1 | -1.75
CCCNc1nc2c(c(=O)n(C)c(=O)n2C)n1CC(O)COc1ccccc1 (stereo not drawn) | -0.08
O=C(Nc1ccccc1F)c1nc(SCc2ccc(F)cc2)ncc1Cl | -0.34
CCc1ccccc1NC(=O)Cn1nnc(C(=O)NCc2ccco2)c1N | -1.51
Cn1ccnc1C(=O)C1CCCN(C(=O)NCC2CCCCC2)C1 (stereo not drawn) | -0.45
Cc1cccc(C)c1OCCSc1nc2ccccc2n1CC(=O)O | 0.37
COc1ccccc1S(=O)(=O)N1CCC(Cc2cccc(C(N)=O)c2)C1 (stereo not drawn) | -1.55
CCOc1ccc(CNC(=O)c2cc3c(=O)oc4ccc(C)cc4c3s2)cc1 | 0.56
CCn1c(=O)cc(OCC(=O)N2CCN(c3ccc(C)cc3)C(C)C2)c2ccccc21 (stereo not drawn) | -0.17
COc1ccc(CCNC(=O)CCCn2c(=O)c3ccccc3n(Cc3c(C)cc(C)cc3C)c2=O)cc1OC | -1.91
CCOC(=O)c1cc2c(=O)n3ccccc3nc2n(Cc2ccco2)c1=NC(=O)c1cccc(F)c1 | -1.55
CC(C)Cn1c(-c2ccccc2Cl)nc2ccccc21 | -1.56
COc1cc2[nH]c(=O)n(CCCCCC(=O)N3CCN(c4cccc(C(F)(F)F)c4)CC3)c(=O)c2cc1OC | 0.58
Cc1ccc(N(C)C(CNS(=O)(=O)c2ccccc2)c2ccccc2)cc1 (stereo not drawn) | 0.08
COc1ccc(-c2ccc(-c3noc(-c4cc(OC)cc(OC)c4)n3)c(OC)n2)cc1 | -1.03
COC(=O)c1c(NC(=O)c2cc(=O)c3cc(C)cc(C)c3o2)sc2c1CCC2 | -0.59
O=C(Nc1ccc(S(=O)(=O)Nc2ncccn2)cc1)c1ccccc1Cl | 0.46
O=C(c1cn(C2CCCCC2)nn1)N1CCc2[nH]cnc2C1c1ccncc1 (stereo not drawn) | -0.79
O=C(C1CCC1)N1CCC(c2n[nH]c(=O)n2Cc2ccccc2)CC1 | 0.19
CN1[C@@H](C[C@H](O)c2ccccc2)CCC[C@H]1CC(=O)c1ccccc1 | -1.19
C#CCn1c(C2CC(=O)N(c3ccc(OC)cc3)C2)nc2ccccc21 (stereo not drawn) | -1.94
Cc1ccc(C)c(N2CCN(C(=O)c3ccc(Nc4nc5ccccc5n5nnnc45)cc3)CC2)c1 | -0.65
Cc1coc2c(C)c3oc(=O)c(CC(=O)NCCc4ccc(Cl)cc4)c(C)c3cc12 | -0.07
CCN(CC)CCCNC(=O)Cn1ncc2c3ccccc3n(Cc3ccccc3)c2c1=O | -2.03
Cc1ccc(-n2nc(CO)c(C(=O)NC(C)CCCc3ccccc3)n2)cc1 (stereo not drawn) | -1.52
CCOc1ccccc1C(=O)Nc1c(NC)c2ccccc2oc1=O | -0.92

Later entries.
SMILES | Bm FixLJ act
COc1ccccc1C(=O)Nc1nc2nc(C)cc(=O)n2[nH]1 | -2.22
Cc1cc(NS(=O)(=O)c2ccc(NC(=O)COc3ccccc3Br)cc2)no1 | -2.18
COc1ccc(CNC(=O)Cn2nnc(-c3ccccc3F)n2)cc1 | -1.17
CCOC(=O)C1CCN(C(=O)C2CCN(C3=NS(=O)(=O)C(c4ccc(C)c(C)c4)=C3C)CC2)CC1 | -1.69
Cc1ccc(NC(=O)Cn2c(=O)n(CCC(=O)NCc3ccc4c(c3)OCO4)c(=O)c3sccc32)c(C)c1 | -1.59
Cc1cc(O)ccc1Cl | 2.53
Cc1oc2ccc(O)c(CN3CCOCC3)c2c1C(=O)Nc1ccc(C(C)C)cc1 | 0.4
Nc1nc(NCCc2ccc(O)cc2)cc(C2CCOC2)n1 (stereo not drawn) | -1.42
Clc1ccccc1C1(c2ccnc(NCCc3cccnc3)n2)CCNCC1 | -0.51
COc1ccc2nc(NC(=O)c3nc(SCc4ccccc4F)ncc3Cl)sc2c1 | -0.21
O=C(Nc1ccc(Cl)c(-c2nc3cc(Cl)ccc3o2)c1)c1cc2ccccc2o1 | 0.2
Cc1ccc(OCCn2c(-c3ccc(Br)cc3)nc3ccccc3c2=O)cc1C | -0.83
CC(=O)N1CCc2c(nc(-c3ccccn3)nc2NC2CCCC2)C1 | 0.49
COc1ccccc1/C=C/c1nc(C#N)c(N2CCCCCC2)o1 | 0.07
CNC(=O)c1ccc(S(=O)(=O)N2CCC(O)[C@@](CC3CC3)(C(=O)O)C2)cc1 (stereo partly drawn) | -1.21
C=CC[N+]1([C@H]2C[C@H]3[C@@H]4CC[C@H]5C[C@H](O)[C@@H](N6CCOCC6)C[C@]5(C)[C@H]4CC[C@]3(C)[C@H]2OC(C)=O)CCCC1 | -0.98
Cc1nc(CC(=O)NCc2cnc3c(C)cccn23)cs1 | 0.78
CC(=O)NCC1CCC2(CCN(c3cc(C4CC4)ncn3)CC2)O1 (stereo not drawn) | -2.09
CNC(=O)C1CCC(CNc2nc(C(C)C)ccc2C#N)CC1 (stereo not drawn) | -1.69
Fc1ccc(-c2[nH]ncc2-c2cn(Cc3nnc4ccccn34)nn2)cc1 | -2.01
CN(Cc1ccc2nccnc2c1)C(=O)c1cn(CCN2CCNCC2)nn1 | -1.75
CCC(NC(=O)c1ccc(-c2cc(C)c(C#N)c(C)n2)cc1)c1ccnn1C (stereo not drawn) | -1.36
O=C(O)c1cc(-c2cccc(CO)c2)cc(S(=O)(=O)N2CCCC2)c1 | -0.15
Cc1ccc(Nc2c(-c3ccc(N4CCOCC4)cc3)nc3ncccn23)cc1 | 0.32
CCCCN(CC)CCCNC(=O)CS(=O)(=O)Cc1nc(-c2ccc(C)cc2)oc1C | -1.25
CC(C)(Oc1ccc(Cl)cc1)C(=O)Nc1nc2ccc(S(C)(=O)=O)cc2s1 | -1.93
CO[C@H]1/C=C/O[C@@]2(C)Oc3c(C)c(O)c4c(O)c(c(/C=N/N5CCN(C)CC5)c(O)c4c3C2=O)NC(=O)/C(C)=C\C=C\[C@H](C)[C@H](O)[C@@H](C)[C@@H](O)[C@@H](C)[C@H](OC(C)=O)[C@@H]1C | -4.09
Cn1ncc2c(NCCC3CCOC3)nc(C3CCCC3)nc21 (stereo not drawn) | 0.66
N#C/C(=C/c1ccc(O)cc1)c1nc(-c2ccc(-c3ccccc3)cc2)cs1 | 0.28
O=C(c1ccc[nH]1)N1CCN(C(=O)C(c2ccccc2)C2CCCC2)CC1 (stereo not drawn) | -1.37

Three entries from above, ordered by count of non-hydrogen atoms, low to high:
SMILES | Bm FixLJ act
Cn1ncc2c(NCCC3CCOC3)nc(C3CCCC3)nc21 (stereo not drawn) | 0.66
O=C(O)c1cc(-c2cccc(CO)c2)cc(S(=O)(=O)N2CCCC2)c1 | -0.15
Cc1ccc(Nc2c(-c3ccc(N4CCOCC4)cc3)nc3ncccn23)cc1 | 0.32
